VCAM-1 augmentation = boosters of cytokine-driven VCAM-1 levels – imaging, high-content imaging, pooled HUVEC, TNFa stimulus (AID 457) | 0.2% of 10,000 active | calls only | Pooled HUVEC, TNFa-induced VCAM-1 immunofluorescence imaging; hits of this screen are not shown here;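 active = a top-ranked rise in VCAM-1 staining upheld on image or statistical review; inactive = the rest, including candidates rejected on review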;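 note: compounds tested at 5 µM in the well; cells exposed to compound for 24 hours before fixing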
VCAM-1 down imaging = inhibitors of TNFa-induced VCAM-1 surface display, imaging, high-content imaging, pooled HUVEC, TNFa stimulus (AID 456) | one-dose inhibition, % at 5 µM; IC50 in µM for titrated hits | HUVEC TNFa-induced VCAM-1 surface expression, immunofluorescence imaging; numbers were filed only for top-ranked candidate wells | 0.2% of 10,000 active;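 active = top tenth filtered wells with inhibition above zero that passed visual or statistical confirmation; inactive = the rest, including hits rejected on review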;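 note: 0% = stimulated vehicle wells and 100% = unstimulated cells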
FPRL1 ligand = binds the human formylpeptide receptor-like-1 FPRL1. AID 441. FPRL1-expressing cells, fluorescent ligand binding inhibition, flow cytometry. inhibition, %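 (tested at 6.7 µM)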. P25090. 0.3% of 24,000 active;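 note: 0% = buffer alone and 100% = receptor blocker peptide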
Target sequence (P25090 whole entry, looked up): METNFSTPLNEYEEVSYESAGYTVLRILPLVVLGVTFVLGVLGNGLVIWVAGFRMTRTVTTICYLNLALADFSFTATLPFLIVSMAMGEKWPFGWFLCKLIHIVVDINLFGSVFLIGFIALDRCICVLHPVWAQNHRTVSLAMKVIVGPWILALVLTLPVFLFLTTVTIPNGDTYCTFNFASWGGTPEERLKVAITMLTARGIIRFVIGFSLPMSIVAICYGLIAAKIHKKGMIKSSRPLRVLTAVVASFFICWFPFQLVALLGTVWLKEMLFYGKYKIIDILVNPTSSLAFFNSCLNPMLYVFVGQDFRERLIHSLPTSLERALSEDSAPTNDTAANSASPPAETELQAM
FPR ligand = ligands of human FPR, also counter-screen for FPRL1 ligands; FPR-expressing cells, fluorescent ligand binding, flow cytometry; inhibition, %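 (tested at 6.7 µM)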; 0.74% of 24,000 active; P21462;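 note: 0% = buffer wells and 100% = receptor blocker peptide wells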
Target sequence (P21462 whole entry, looked up): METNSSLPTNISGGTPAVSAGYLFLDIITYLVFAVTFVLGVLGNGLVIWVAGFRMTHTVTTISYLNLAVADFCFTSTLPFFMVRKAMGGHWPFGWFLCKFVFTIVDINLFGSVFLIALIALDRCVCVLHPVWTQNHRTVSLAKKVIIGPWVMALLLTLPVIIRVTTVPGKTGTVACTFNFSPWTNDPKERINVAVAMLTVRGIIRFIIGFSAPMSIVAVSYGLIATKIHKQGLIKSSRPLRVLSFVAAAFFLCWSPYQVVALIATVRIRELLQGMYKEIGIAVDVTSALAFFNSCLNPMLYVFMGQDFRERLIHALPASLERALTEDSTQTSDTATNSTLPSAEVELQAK
VCAM-1 down = suppression of endothelial VCAM-1 upregulation – cell-based, plate reader, pooled HUVEC, TNFa stimulus (AID 454); inhibition, % at 5 µM; HUVEC TNFa-induced VCAM-1 surface immunofluorescence, plate reader; numbers were filed only for top-ranked candidate wells; 0.2% of 10,000 active;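 active = compound among top-ranked inhibitors of TNF-induced VCAM-1 adhesion protein staining, with the hit upheld by image or statistical review; inactive = the rest, including hits rejected on review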;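 note: 0% = TNFa with vehicle and 100% = cells without TNFa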
* = called active by the depositor; i = inactive; . = not tested or not shown.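 Rule for the calls, unless noted: active = mean above 30%; inconclusive = self-fluorescent; inactive = the rest.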

Compound | VCAM-1 augmentation | VCAM-1 down imaging | FPRL1 ligand | FPR ligand | VCAM-1 down
Clc1ccc(-c2nnc3sc(-c4ccc(Br)o4)nn23)cc1 | i | i | 3 | 8 | i
O=C(Cn1c(-c2cncs2)nc2ccccc21)NCCc1ccccc1 | . | . | 1 | 9 | .
O=c1c2nnn(Cc3ccccc3)c2ncn1-c1ccccc1 | i | i | -4 | 2 | i
Nc1c(C(O)(C(F)(F)F)C(F)(F)F)ccc2ccccc12 | . | . | -15 | -12 | .
Cc1ccc2oc(C(=O)Nc3c(C)n(C)n(-c4ccccc4)c3=O)c(C)c2c1 | i | i | 3 | -2 | i
[O-]/[N+](=C/c1ccc(F)cc1)c1ccccc1 | . | . | 0 | -5 | .
CCOc1ccc(NC(=O)CCS(=O)(=O)c2cccc3nsnc23)cc1 | . | . | -3 | 8 | .
COC(=O)CC1SC(=O)NC1=O (configuration not stated) | i | i | 3 | -4 | i
CSC1=NCCN1C(=O)c1ccc(S(=O)(=O)N2CCOCC2)cc1 | . | . | 16 | 13 | .
O=C1C2C3C=CC(C3)C2C(=O)N1c1ccc2c(c1)CCC2 (configuration not stated) | . | . | -6 | 1 | .
O=C(CSc1nc2c(c(=O)n1-c1ccc(F)cc1)SCC2)NCc1ccco1 | . | . | 7 | 1 | .
O=c1nc(N2CCOCC2)ccn1-c1nc(-c2ccccc2)oc1-c1ccccc1 | . | . | 0 | 7 | .
Cc1onc(-c2ccccc2)c1C(=O)NC(CC(=O)O)c1ccc(OC(C)C)cc1 (configuration not stated) | . | . | 6 | -1 | .
CCN1C(=O)/C(=C2/Sc3ccc(OC)cc3N2C)SC1=Nc1ccc(C(C)=O)cc1 | . | . | -11 | 2 | .
O=C(CCn1cccc1)Nc1cc(F)ccc1F | . | . | 1 | 1 | .
CCOC(=O)c1ccc(COC(=O)c2cc3ccccc3oc2=O)o1 | i | i | 1 | -10 | i
CC1CCN(C(=O)C2CC(c3ccc(F)cc3)=NO2)CC1 (configuration not stated) | . | . | -2 | 0 | .
COc1ccc(-c2c(C)oc3c(CN4CCN(C)CC4)c(O)ccc3c2=O)cc1 | . | . | 0 | -1 | .
CCCN1CCN(CCCNC(=O)C2CCCN(c3nnc(-n4cccc4)s3)C2)CC1 (configuration not stated) | . | . | -2 | -5 | .
Cc1nc2nc[nH]n2c(=O)c1NC(=O)c1cccc(OCC(C)C)c1 | . | . | 2 | 0 | .
Cc1n[nH]c(C)c1S(=O)(=O)N1CCCC(C(=O)N2CCN(c3ccc(Cl)cc3)CC2)C1 (configuration not stated) | . | . | -7 | -2 | .
CSc1c(CC(=O)NCCO)n(C)c2ccccc12 | i | i | 8 | -6 | i
COC(=O)c1ccc2c(=O)n(Cc3ccc4c(c3)OCO4)c(SCC(=O)N3CCCC3)nc2c1 | . | . | 1 | 2 | .
O=S(=O)(NC1CCN(Cc2ccccc2)CC1)c1cccc2cccnc12 | . | . | -1 | -5 | .
Cc1ccc(S(=O)(=O)NCC2CCC(C(=O)NCc3ccco3)CC2)cc1 (configuration not stated) | . | . | -2 | 0 | .
Cc1nn(C)c(C)c1S(=O)(=O)N1CCC(C(=O)NC(C)c2ccccc2)CC1 (configuration not stated) | . | . | -1 | 5 | .
COc1ccc(CCn2c(SCC(=O)Nc3cc(C)on3)nc3ccsc3c2=O)cc1OC | . | . | 8 | 12 | .
COC(=O)CN(c1nc(C)c(Cl)c(OC)n1)S(=O)(=O)c1ccc(C)cc1 | i | i | -4 | 1 | i
Cc1cccc(COc2ccc(/C(O)=C3\C(=O)C(=O)N(CCN(C)C)C3c3ccncc3)cc2)c1 (configuration not stated) | i | i | 0 | 1 | i
CCOC(=O)c1[nH]c(C)c(C(=O)NCCc2ccc(OC)cc2)c1C | . | . | -4 | 3 | .
CCOC(=O)c1cc(-c2nnc(-c3ccc(Oc4ccccc4)cc3)o2)c(C)nc1C | i | i | -9 | -10 | i
O=C(CN1CCOc2ccccc21)NCc1ccc(F)cc1 | . | . | -1 | -5 | .
COc1ccc(S(=O)(=O)NC(CC(=O)NCc2ccco2)c2ccco2)cc1 (configuration not stated) | i | i | 2 | 1 | i
Brc1cnn(-c2nc(N3CCOCC3)nc(N3CCOCC3)n2)c1 | . | . | 1 | 2 | .
C=CCOc1ccc(/C(O)=C2\C(=O)C(=O)N(CCOC)C2c2cccnc2)cc1 (configuration not stated) | i | i | 8 | -7 | i
COc1cccc(-c2nc(CS(=O)CC(=O)NCc3ccc4c(c3)OCO4)c(C)o2)c1 (configuration not stated) | . | . | -1 | 10 | .
C[C@H](NC(=O)OC(C)(C)C)C(=O)NCC1CCC(C(=O)O)CC1 (some centres not stated) | i | i | 7 | 15 | i
CC(=O)[C@H]1CC[C@H]2[C@@H]3CCC4=CC(=O)CC[C@]4(C)[C@H]3CC[C@]12C | i | 87% | -3 | -8 | 97*
Cc1c(NC(=O)c2cnn3c2NC(c2ccco2)CC3C(F)(F)F)c(=O)n(-c2ccccc2)n1C (configuration not stated) | i | i | -3 | -2 | i
O=C(OC1CCCCC1)c1ccc2c(c1)C1C=CCC1C(C(=O)O)N2 (configuration not stated) | . | . | 6 | 10 | .
CCOC(=O)N1CCN(C(=O)c2oc3ccc(S(=O)(=O)N4CCCCC4)cc3c2C)CC1 | . | . | 8 | 10 | .
COc1ccc(C2CC(c3cc(Br)ccc3F)n3nnnc3N2)cc1 (configuration not stated) | . | . | 0 | 0 | .
COc1ccc(NC(=O)c2cc(C3CC3)on2)c(OC)c1 | i | i | 0 | -4 | i
Cc1ccc2c(c1)NCC(C(=O)NC1CCCCC1)O2 (configuration not stated) | . | . | 1 | 3 | .
COc1cccc(Cn2nnc(C(=O)NCc3ccccc3Cl)c2N)c1 | . | . | -6 | -3 | .
COc1ccc(C2C(C(=O)Nc3cccnc3)=C(C)Nc3nc(-c4cccs4)nn32)cc1OC (configuration not stated) | i | i | -1 | -1 | i
CSc1cccc(NC(=O)Cn2cccc2)c1 | . | . | 0 | -5 | .
O=C(c1ccco1)N1CCN(c2c(-c3ccccc3)c3cc(Cl)ccc3[nH]c2=O)CC1 | i | i | 0 | 9 | 86*
COc1ccc(/C(O)=C2/C(=O)C(=O)N(CCCC(=O)O)C2c2ccc(OC)c(OC)c2)cc1 (configuration not stated) | . | . | -6 | -12 | .
CCCc1[nH]nc2c1C(CCc1ccccc1)C(C#N)=C(N)O2 (configuration not stated) | . | . | 2 | 1 | .
CC(NC(=O)c1cc2c(=O)n(C)c3ccccc3c2n1C)c1ccc2c(c1)OCCO2 (configuration not stated) | i | i | 0 | 4 | i
Cc1ccccc1C(OCCN(C)C)c1ccccc1 (configuration not stated) | i | i | 16 | 5 | i
Cc1cccc(-n2nc3c(c2NC(=O)c2ccc(Br)o2)CSC3)c1 | . | . | -3 | -16 | .
CC1=C(C(=O)OCc2ccccc2)C(c2ccco2)n2ncnc2N1 (configuration not stated) | i | i | 2 | -5 | i
O=c1c2nnn(Cc3ccc(Cl)cc3)c2ncn1Cc1ccc(F)cc1 | i | i | 0 | 19 | i
COc1ccc(Nc2cc(C(=O)NCCCN3CCN(C)CC3)c3ccccc3n2)c(OC)c1 | . | . | -2 | -7 | .
O=C(NCCCN1CCCCCC1)C1CC(=O)N(C2CCCC2)C1 (configuration not stated) | . | . | -4 | 5 | .
O=C(O)CC1(Cc2nc(-c3cccs3)no2)CCCC1 | . | . | -1 | -4 | .
O=C(CCCn1c(SCC(=O)c2ccc(F)cc2)nc2ccccc2c1=O)NCc1ccco1 | . | . | -4 | 2 | .
COc1ccc(N2C(=O)CCC(C(=O)NCCN3CCOCC3)C2c2ccc(OC)c(OC)c2)cc1 (configuration not stated) | . | . | -2 | -7 | .

Carrying on.
Compound | VCAM-1 augmentation | VCAM-1 down imaging | FPRL1 ligand | FPR ligand | VCAM-1 down
O=C(Cn1cnc2c(nnn2Cc2ccccc2)c1=O)c1ccc(Cl)cc1 | i | i | -1 | 14 | i
COc1ccc(CC(=O)NCc2ccccc2)cc1S(=O)(=O)N1CCOCC1 | i | i | -4 | 4 | i
COC(=O)CN1C(=O)CC(C)(C)S(=O)c2ccccc21 (configuration not stated) | i | i | 2 | -5 | i
Cc1ccccc1-n1c(SCc2cc(=O)n3ccccc3n2)nc2[nH]ncc2c1=O | . | . | 5 | 2 | .
c1ccc(-n2nnnc2OCCOc2nnnn2-c2ccccc2)cc1 | i | i | -3 | 8 | i
CSc1ccc(Cn2nnc(C(=O)NCc3ccccc3)c2N)cc1 | i | i | 0 | -2 | i
CCC(=O)c1ccc(O)cc1 | i | i | 2 | 8 | i
Cn1cc(CNC(=O)C2c3ccccc3Oc3ccccc32)cn1 | . | . | -3 | 4 | .
CCOc1ccccc1NC(=O)CC1Nc2cc(C)c(C)cc2NC1=O (configuration not stated) | i | i | -9 | 4 | i
CCOC(=O)C(CC)n1cnc2c(nnn2-c2ccc(C)cc2)c1=O (configuration not stated) | . | . | 2 | 8 | .
CCN(Cc1ccccc1)C(=O)CSc1nc(C)cc2c1C(=O)OC2 | . | . | -4 | 2 | .
Cc1ccc(NC(=O)c2oc3ccc(S(=O)(=O)N4CCOCC4)cc3c2C)cc1C | i | i | 22 | 12 | i
O=C(Nc1cccc(OC(=O)c2ccco2)c1)c1ccco1 | . | . | 0 | 0 | .
O=C(O)c1cc(-c2cccs2)nc2cc3c(cc12)OCCO3 | . | . | 2 | 2 | .
CCN(CC)CCCNC(=O)c1cn(C)c2ccc(S(=O)(=O)N(C)C)cc2c1=O | i | i | 2 | -2 | i
OCCN1CCN(C(c2cccs2)c2ccc3cccnc3c2O)CC1 (configuration not stated) | . | . | 0 | 6 | .
CC(C)Cc1n[nH]c(=O)[nH]1 | i | i | 0 | 1 | i
CCCCn1c(SCC(=O)Nc2cccc(OC)c2)nc2ccc(N3CCOCC3)cc2c1=O | . | . | 3 | 6 | .
CCNc1nc(Oc2ccc(=O)n(C)n2)nc(N2CCOCC2)n1 | . | . | -7 | -14 | .
Cn1cc(-c2nc3ccccc3[nH]2)c2ccccc21 | i | i | -2 | 7 | i
Cc1cc2cc(CNC(=O)c3ccc4c(c3)OCO4)ccc2n1C | . | . | 2 | 2 | .
N#CC1=C(SCC(=O)NC23CC4CC(CC(C4)C2)C3)NC(=O)C(C#N)C12CCCCC2 (configuration not stated) | i | i | -5 | 1 | i
Cc1cc(N2CCC3(CC2)OCCO3)n2nc(C)c(-c3ccc(Cl)cc3)c2n1 | i | i | 1 | 4 | i
CN(Cc1ccco1)C(=O)c1ccc(N2CCCC2=O)cc1 | . | . | 10 | 5 | .
CCCSC1=C(C#N)C(c2cc(OC)ccc2OC)CC(=O)N1 (configuration not stated) | i | i | 1 | 7 | i
O=C1NC2c3ccccc3C(=O)N2c2c1cnn2-c1ccccc1 (configuration not stated) | i | i | 1 | -1 | i
CC(C)(C)c1ccc(O)c(N)c1 | i | i | -1 | -9 | i
CCN(CCNC(=O)Cn1cc2c(n1)CCCC2)c1ccccc1 | . | . | -9 | -2 | .
O=C(NCc1ccc2c(c1)OCO2)c1cccc(N2CCCC2=O)c1 | . | . | -22 | -16 | .
COCc1nnc(NC(=O)c2ccc(S(=O)(=O)N3CCCCCC3)cc2)o1 | . | . | 1 | -2 | .
Cc1ccc2cc(C(c3nnnn3CC3CCCO3)N3CCc4ccccc4C3)c(=O)[nH]c2c1 (configuration not stated) | i | i | 10 | 2 | i
CC(=O)NC1(C(F)(F)F)NC(=O)N(CC(C)C)C1=O (configuration not stated) | i | i | 6 | -8 | i
CC(C)Cn1c(=O)c2c(c3ccccc31)OC(C)C(=O)N2 (configuration not stated) | . | . | 0 | 1 | .
CC(C)OC(=O)c1c(NC(=O)CCn2nnc3ccccc32)sc2c1CCCC2 | . | . | 6 | 1 | .

Bioassay records as filed in PubChem.

An excerpt. The share of hits here may be higher or lower than overall.
